Prx2 Sm inh = Schistosoma Mansoni Peroxiredoxins (Prx2). S. mansoni Prx2 activity coupled to TGR/GSH (TGR is thioredoxin glutathione reductase), NADPH fluorescence loss, qHTS; some inactives read as strong as hits. Potency, µM. AID 448, 2006. hit rate 0.07% among 65,000; active means full or partial inhibition curve with a strong effect at the top dose; inconclusive means weaker partial or single-point curve; inactive means no accepted curve; further: series up to 57 µM; many of its hits are not listed in these tables
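qHTS, coupled TGR/Prx2 format; 15 min compound preincubation at RT; reaction started with H2O2 (2.5 mM aliquot); kinetic NADPH fluorescence decrease, ex 365/em 450 nm.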
Anthrax LT inh = qHTS Assay for Anthrax Lethal Toxin Internalization; Cells, anthrax lethal toxin internalization, FRET ratio (460/530); Potency, µM (series often up to 40 µM), for inactives: top-dose activity change, negative = inhibition, most hits filed as inhibitors; hit rate 0.67% among 70,000; AID 912, 2007; active = well fitted falling ratio curve with the 530 nm signal flat; inconclusive = other ratio curves, or a change in one channel alone; inactive = flat curves in the ratio and both channels; the % refers to the ratio; further: on the % scale 0 is the no-effect control and ±100 the full control effect; nearly all actives have a fitted effect of over 50% in size; tested in ME-180 cells; beta-lactamase reporter
An asterisk follows results filed as active; ? = inconclusive; . = not tested or not shown; & = joins results of further samples; [ ] = another dose, or the depositor's remark. Potency means the concentration at half of the fitted maximal effect. The list is partial; count on the stated rates, not on these rows.

SMILES	Prx2 Sm inh	Anthrax LT inh
O=C(Cc1ccc(F)cc1)N(c1ccccc1)C1C=CS(=O)(=O)C1 (stereo not given)	>57	-18.4%
CCS(=O)(=O)C(=C1NCCO1)S(=O)(=O)CC	>57	-1.0%
COc1ccc(S(=O)(=O)N2CCN(C)CC2)cc1C	>57	-3.3%
Cc1sc2ccccc2c1CC1=NCCN1	>57	-4.3%
CCOC(=O)/C(N=O)=C(\O)C1CCN(C(=O)OCC)CC1	>57	10.0%
CCN1C(=O)c2cccc3c(NC(=O)c4ccc(S(=O)(=O)N(C)C)cc4)ccc1c23	>57	-14.1%
Cc1nc2ccccn2c1/C(O)=C1\C(=O)C(=O)N(CCN(C)C)C1c1cccnc1 (stereo not given)	>57	-10.1%
CCOC(=O)c1[nH]c(C)c(C(=O)NCc2ccc(Cl)cc2)c1C	>57	-5.1%
O=C(Cn1c(CN2CCCCC2)nc2ccccc2c1=O)Nc1ccccc1	>57	-17.8%
Cc1cccc(-c2nc(CN3CCCC(C(=O)NC4CCC(C)CC4)C3)c(C)o2)c1 (stereo not given)	>57	-9.4%
CC1=C(C(=O)Nc2ccc(Cl)cc2)C(c2ccco2)NC(=O)N1 (stereo not given)	>57	0.9%
CCNC(=O)C1CC(=O)N(c2ccc(OCC)cc2)C1 (stereo not given)	>57	-11.2%
O=C(NC1(C(F)(F)F)NC(=O)N(Cc2cccnc2)C1=O)c1ccncc1 (stereo not given)	>57	-9.4%
COc1ccccc1NC(=O)c1ccc(NS(C)(=O)=O)cc1	>57	4.1%
CCOc1ccc2[nH]cc(C(=O)N3CCN(CC)CC3)c(=O)c2c1	>57	6.9%
COc1ccc(N2CCN(CCCNS(=O)(=O)c3c(C)noc3/C=C/N(C)C)CC2)cc1	.	-10.6%
CCS(=O)(=O)c1nc2ccccc2n1CC(=O)N1CCOCC1	>57	.
COc1ccc(Cl)cc1NC(=O)C1CCCO1 (stereo not given)	.	3.8%
CCCCc1ccc(C(=O)O)nc1	>57&>57&>57	-6.8%
c1ccc2c(c1)Cn1nnnc1-2	>57	-0.7%

Of the compounds above, these contain an NH in an aromatic ring:
SMILES	Prx2 Sm inh	Anthrax LT inh
CCOC(=O)c1[nH]c(C)c(C(=O)NCc2ccc(Cl)cc2)c1C	>57	-5.1%
CCOc1ccc2[nH]cc(C(=O)N3CCN(CC)CC3)c(=O)c2c1	>57	6.9%

(next part)
SMILES	Prx2 Sm inh	Anthrax LT inh
CSc1nnc2c3c4c(sc3nc(-n3nc(C)cc3C)n12)COC(C)(C)C4	>57	4.7%
CCSc1nc(O)c(CC)c(=O)n1C(C)CC (stereo not given)	>57	-7.6%
O=c1c2ccccc2nc(-c2cccs2)n1-c1cnccn1	.	-11.0%
CCOC(=O)Cc1cc(=O)n2[nH]c(C)cc2n1	>57	-19.1%
O=C1NC(c2ccncc2)Nc2sc3c(c21)CCCC3 (stereo not given)	>57	-20.1%
COC(=O)c1ccc(C23CC2(C(NP(=O)(c2ccccc2)c2ccccc2)c2ccccc2)C3)cc1 (stereo not given)	>57	-7.1%
O=C(c1ccc(Cl)cc1)c1ccccc1C(=O)N1CCOCC1	>57	-6.7%
COc1ncc2nc(-c3cc(F)cc(F)c3)c(=O)n(C[C@H]3CCCO3)c2n1	>57	-9.4%
COc1ccccc1CNC(=O)C(NC(=O)C1CCCCC1)C(C)C (stereo not given)	>57	?
O=C(CSc1n[nH]c(-c2ccncc2)n1)Nc1ccccn1	>57	28.0%
CCn1nc(NC(=O)c2ccncc2)c2cc3cccc(C)c3nc21	>57	?
Cc1cc(/C=C(/C#N)c2cccc(F)c2)c(C)n1-c1cccnc1	>57	?
Cc1cc(NC(=O)CSc2nc3c(c(=O)n2-c2ccccc2)SC(C)C3)no1 (stereo not given)	>57	7.9%
Cn1c(CN2CCOCC2)nc2cc(NC(=O)c3ccc(F)cc3)ccc21	>57	?
Cc1cc(-c2ccco2)n(CC(=O)O)n1	>57	-7.9%
CCOC(=O)N1CCN(c2nc(N(c3ccccc3)c3ccccc3)nc(-n3ccnc3)n2)CC1	>57	?
Cn1c(=O)[nH]c(=O)c2c1nc(N1CCCCCC1)n2Cc1cccc2ccccc12	>57	-9.9%
COc1ccc(CNc2cc(C)nc3ncnn23)c(OC)c1	>57	1.9%
Cc1ccc(-c2cn(S(=O)(=O)c3cccc4nsnc34)nc2N)cc1	>57	24.7%
CC1CCN(C(=O)c2ccc3c(c2)OCCO3)CC1	>57	10.6%
Nc1nc(N)nc(CCCc2nc(N)nc(N)n2)n1	>57	-9.5%[8 µM]
Cc1ccc(C(O)c2nc3ccccc3n2C(C)C)cc1 (stereo not given)	>57	-0.3%
O=C(NCc1cccnc1)c1noc2c1CCCCC2	>57	-13.6%
CS(=O)(=O)N(CCc1ccccc1)CC(=O)N1CCN(Cc2ccc3c(c2)OCO3)CC1	>57	-13.6%
C=CCn1c(N)cc(=O)nc1SCC(=O)Nc1ccccc1	>57	-13.2%
O=C(NC1CCN(C(=O)N2c3ccccc3Sc3ccccc32)CC1)c1ccco1	>57	?
O=C(CNC(=O)c1cc2ccccc2o1)NCc1cccs1	>57	-1.9%
N[C@@H]1CCc2cc(O)c(O)cc2C1	>57	?
CCn1cc(C(=O)Nc2ccc(-n3cnnn3)c(OC)c2)c(=O)c2ccc(C)nc21	>57	?
Cc1cc(NC(=O)CN2CCN(c3ncccn3)CC2)no1	>57	12.8%
Cc1ccc(C(=O)NC2CC(C)(C)NC(C)(C)C2)c(C)c1	>57	?
Cn1c(=O)c2c(ncn2CCSS(=O)(=O)O)n(C)c1=O	>57	-10.4%[8 µM]
COc1ccc(C(=O)N2CCC(n3c(C)nc4cc(F)ccc43)CC2)cc1OC	>57	-20.6%
O=C(Nc1ccc(F)cc1F)c1cccnc1	>57	7.5%
COc1ccc(CCNC(=O)CCCn2c(SCC#N)nc3ccccc3c2=O)cc1OC	>57	18.6%
CCOC(=O)c1ccccc1Nc1cc(C)nc2nc(C)nn12	>57	0.5%
CCCn1c(SCC(=O)Nc2nc3c(s2)CCCC3)nc2c1c(=O)n(C)c(=O)n2C	>57	-18.8%
COc1cc2c(cc1OC)[C@H](c1ccccc1)CN(C)CC2	>57	5.3%
Cc1nn(-c2ccc(F)cc2)c2sc(C(=O)N3CCCCCC3)cc12	>57	-11.9%
CCOC(=O)c1sc(Nc2nc3c(OC)cccc3s2)nc1C	>57	?
Cc1ccc(S(=O)(=O)NCCCCCC(=O)NC(C)(C)CO)cc1	>57	?
O=C1CC(c2ccc(F)c(Br)c2)C2=C(CCCC2=O)N1 (stereo not given)	>57	6.5%
COc1ccc(CNC(=O)c2ccc(=O)oc2)cc1OC	>57	.
Clc1cnc(Oc2ccc(Oc3ncc(Cl)cc3Cl)cc2)c(Cl)c1	>57	?
Cc1ccc(NC(=O)c2c(O)c3ccccc3n(C)c2=O)nc1	>57	-7.0%
COc1ccc(N2CCN(S(=O)(=O)c3cccs3)CC2)cc1	>57	-8.5%
CCOC(=O)C(NC(=O)c1ccccc1)=C1CCCCC1	>57	3.0%
CCCc1cc(C(=O)Nc2sc(C)c(CC)c2C#N)no1	>57	12.6µM*
Fc1ccc(Cn2nnnc2CN2CCN(C3CCCC3)CC2)cc1	>57	-4.6%
Cc1ccc(S(=O)(=O)Nn2c(C)nnc2-n2nc(C)cc2C)cc1	>57	-8.1%
O=C(COC(=O)C1c2ccccc2Oc2ccccc21)NC1CCS(=O)(=O)C1 (stereo not given)	>57	?
COc1ccc(N(C(=O)Nc2ccc(Cl)cc2)C2=NCCC2)cc1	>57	?
Cc1cc2cc(CNC(=O)C3CC3)ccc2n1C	>57	6.9%
O=C(O)CCNS(=O)(=O)c1ccc2c(c1)Cc1ccccc1-2	>57	-5.3%
COc1cccc(-n2c(C)nnc2SCC(=O)Nc2ccccc2N2CCOCC2)c1	>57	?
CCCCNC(=O)CCCn1c(=O)[nH]c2ccc(Br)cc2c1=O	>57	11.1%
COc1cccc(NC(=O)C2CCCN(S(=O)(=O)c3cccc4cccnc34)C2)c1 (stereo not given)	>57	-29.8%
C[C@]12CCC(=O)C[C@@H]1CC[C@@H]1[C@@H]2CC[C@]2(C)[C@@H](O)CC[C@@H]12	.	4.1%
Cc1ccc(NC(=O)NCCc2ccc(S(N)(=O)=O)cc2)cc1	>57	-17.2%
O=C(O)CCC(=O)CCC(=O)c1ccc(Cl)cc1	.	3.6%
The listing continues:
SMILES	Prx2 Sm inh	Anthrax LT inh
CC(C)Cn1c(N)c(C(=O)NCc2cccs2)c2nc3ccccc3nc21	>57	?
Cc1cc(NS(=O)(=O)c2ccc(OCCNS(C)(=O)=O)cc2)no1	>57	-2.8%
O=C(NC1CCCCCC1)c1cc(S(=O)(=O)N2CCOCC2)ccc1N1CCCCC1	>57	-16.5%
CC(C)(C)c1cc(NC(=O)COC(=O)c2ccc3c(=O)n4c(nc3c2)CCC4)n(-c2ccccc2)n1	>57	2.8%
Cc1ccc2c(NC(=O)C3CC3)c(C)ccc2n1	>57	0.7%
O=C(CN(C(=O)c1cc2c(s1)CCC2)C1CCCC1)NCc1cccs1	>57	-13.3%
O=C(COC(=O)CCC(=O)c1ccc2c(c1)OCCO2)NCc1ccc2c(c1)OCO2	>57	-0.4%
Nc1nnnn1NCc1cccc(OCc2ccccc2)c1	>57	?
O=C(O)c1cc2ccccc2n1-c1ccccc1	>57	-9.8%
Cc1ccccc1N(CC(=O)NCc1ccncc1)S(C)(=O)=O	>57	-10.7%
FC(F)(F)c1cc(-c2ccccc2)nc(-n2cncn2)n1	>57	4.0%
CCN(CC)CCN(Cc1cc2cc(C)ccc2[nH]c1=O)C(=O)Nc1ccccc1OC	>57	-7.5%
COC(=O)C1CCN(C(=O)COC(=O)c2n[nH]c3ccccc23)CC1	>57	18.6%
O=C(CN1C(=O)c2ccccc2C1=O)N1CCN(c2ccccn2)CC1	>57	-5.5%
C=CCn1c(SCC(=O)Nc2ccccc2CC)nnc1-c1ccncc1	>57	5.3%
CNS(=O)(=O)c1cc(OCC(N)=O)c(C)cc1Cl	>57	4.8%
N#C/C(C(N)=O)=c1/ccc2c(c1)N1C3=C(CCCC3)CC3CCCCC31N=2 (stereo not given)	>57	?
COc1ccc(CNC(=O)c2cc(-c3ccccc3O)n[nH]2)cc1	>57	?
Cc1cc(C)n2nc(S(=O)(=O)N(C)c3ccccc3)nc2n1	>57	5.6%
CCOC(=O)C1CCN(Cc2ccc(F)c(Br)c2)CC1	>57	?

A section from the list above, for reference:
SMILES	Prx2 Sm inh	Anthrax LT inh
Cc1ccc2c(NC(=O)C3CC3)c(C)ccc2n1	>57	0.7%
O=C(CN(C(=O)c1cc2c(s1)CCC2)C1CCCC1)NCc1cccs1	>57	-13.3%
O=C(COC(=O)CCC(=O)c1ccc2c(c1)OCCO2)NCc1ccc2c(c1)OCO2	>57	-0.4%

(list continues)
SMILES	Prx2 Sm inh	Anthrax LT inh
O=C(c1ccc(-n2cnnn2)cc1)N1CCN(C(c2ccccc2)c2ccccc2)CC1	>57	10.6%
CN(C)CCCNCCCNC(=O)c1ccco1	>57	0.8%
Cn1c(=O)[nH]c(=O)c2c1nc(CN1CCN(c3cccc(Cl)c3)CC1)n2Cc1ccccc1Cl	>57	?
Cc1cc(=O)oc2cc(OCC(O)CN3CCc4ccccc4C3)ccc12 (stereo not given)	>57	10.3%
Cc1cc(N2CCCC2)nc(-c2ccccc2O)n1	>57	?
CCCn1nc(C(=O)Nc2cc(C(=O)OC)ccc2C)c2ccccc2c1=O	>57	?
Cc1noc(N)c1C(=O)Nc1ccc(F)cc1	>57	-9.0%
COc1ccccc1N(CC(=O)NC1CCCCC1)C(=O)CCC(=O)Nc1ccccn1	>57	8.7%
O=C(/C=N/O)NCCCN1CCCCCC1	.	-12.0%
CCc1ccccc1NC(=O)c1ccc(F)c(S(=O)(=O)N2CCC(C(N)=O)CC2)c1	>57	-1.7%
CCOC(=O)c1oc2ccccc2c1NC(=O)CN1CCN(C)CC1	>57	-21.8%
Cc1nc2ccccc2c2oc(C(=O)NC3CC3)cc12	>57	-0.6%
O=C1Cc2ccccc2N1c1ccccc1	>57	.
COC(=O)c1ccc(C(NC(=O)OCc2ccccc2)/C(=C/[C@@H](C)C(=O)Nc2ccc(OC)cc2)c2cccnc2)cc1 (stereo not given in full)	.	1.1%
CCOP(=S)(OCC)Oc1ccc([N+](=O)[O-])cc1	.	-8.6%&-8.7%
O=C(COc1ccc2c(c1)C(=O)CC1(CCCCC1)O2)NCc1ccccn1	>57	-2.4%
O=C(Nc1ccc(N2CCCCC2)cc1)c1cncc(Br)c1	.	-10.6%
COc1ccc(CCNc2oc(-c3ccco3)nc2C#N)cc1	.	-7.5%
COc1ccccc1CCNC(=O)c1ccoc1C	>57	-13.5%
O=C(c1ccco1)N1CCC2(CCN(Cc3cc(C(F)(F)F)cc(C(F)(F)F)c3)CC2)CC1	>57	-5.2%
Cc1cccc(C)c1NC(=O)N1CC=C(n2c(=O)[nH]c3ccccc32)CC1	>57	0.4%
Cc1cc2n(n1)C(c1ccc(N(C)C)cc1)Nc1ccccc1-2 (stereo not given)	>57	1.0%
O=C1CC(CCC(=O)NC2CC2)c2ccccc2N1 (stereo not given)	>57	14.5%

Some of these compounds in order of SMILES length, highest first:
SMILES	Prx2 Sm inh	Anthrax LT inh
Cc1cc(=O)oc2cc(OCC(O)CN3CCc4ccccc4C3)ccc12 (stereo not given)	>57	10.3%
CCOP(=S)(OCC)Oc1ccc([N+](=O)[O-])cc1	.	-8.6%&-8.7%
CN(C)CCCNCCCNC(=O)c1ccco1	>57	0.8%
O=C(/C=N/O)NCCCN1CCCCCC1	.	-12.0%

Screening results: PubChem BioAssay, National Center for Advancing Translational Sciences (NCATS)
